Mtb bLac sens = beta-lactam sensitization of Mtb H37Rv | M. tuberculosis H37Rv growth with meropenem, percent inhibition; hits of this screen are not shown here | inhibition, % at 25 µM | 330,000 tested, 0.27% active;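 active means about 74% or more and at least 40 points above the plate without the antibiotic, then above 30% in a dose series; inconclusive means first-round hits that could not be retested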;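 further: growth measured after seven days incubation then overnight dye step; 0% = bacteria only wells and 100% = bacteria with antibiotic; twin plates without the antibiotic show which effects depend on it; some results filed as inactive read as strong as hits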
RecA intein inh = inhibitors of M. tuberculosis RecA intein splicing | P9WHJ3 | cell-free RecA intein splicing, fluorescence | inhibition, %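 (about 9 µM by stock and volumes)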 | 290,000 tested, 0.75% active | AID 2221; in the data active means inhibition above about 30%; inconclusive means no clear call, values can overlap the other calls;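 further: 0% = vehicle wells and 100% = reference inhibitor control wells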
Target sequence (P9WHJ3 whole entry, looked up): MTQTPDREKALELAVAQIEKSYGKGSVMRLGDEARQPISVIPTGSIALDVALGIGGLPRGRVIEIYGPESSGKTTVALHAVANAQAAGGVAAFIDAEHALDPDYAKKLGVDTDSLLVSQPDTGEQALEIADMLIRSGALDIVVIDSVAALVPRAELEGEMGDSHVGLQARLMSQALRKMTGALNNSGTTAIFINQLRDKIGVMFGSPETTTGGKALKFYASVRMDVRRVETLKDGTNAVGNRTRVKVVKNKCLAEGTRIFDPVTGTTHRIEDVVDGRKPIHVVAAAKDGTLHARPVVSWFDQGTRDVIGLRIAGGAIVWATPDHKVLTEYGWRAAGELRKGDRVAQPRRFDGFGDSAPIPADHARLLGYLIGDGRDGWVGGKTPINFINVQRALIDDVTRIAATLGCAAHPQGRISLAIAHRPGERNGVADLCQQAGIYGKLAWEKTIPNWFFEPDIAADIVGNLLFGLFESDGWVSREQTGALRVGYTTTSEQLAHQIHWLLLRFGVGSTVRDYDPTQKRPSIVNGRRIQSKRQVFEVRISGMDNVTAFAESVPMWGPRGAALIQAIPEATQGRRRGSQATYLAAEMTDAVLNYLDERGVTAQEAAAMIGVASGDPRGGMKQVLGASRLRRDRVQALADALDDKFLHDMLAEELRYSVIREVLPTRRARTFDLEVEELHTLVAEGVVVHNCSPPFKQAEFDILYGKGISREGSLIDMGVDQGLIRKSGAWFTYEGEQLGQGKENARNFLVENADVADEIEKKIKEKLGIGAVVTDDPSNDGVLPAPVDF
Arbovirus inh = blocks arbovirus infection. arbovirus infection cell-based antiviral screen. inhibition, % at 10 µM. 200,000 tested, 0.37% active. AID 1251;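 active means inhibition from about 30%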;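 further: bluetongue infection of BSR cells; cell survival read as ATP light after 72 h; 0% = infected wells without compound and 100% = uninfected wells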
YopH inh = inhibitors of Yersinia enterocolitica YopH tyrosine phosphatase; AID 898; 140,000 tested, 0.16% active; fluorescence Ex485/Em525; inhibition, %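 (about 10 µM by stock and volumes)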;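 active means inhibition of 50% or more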;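 further: controls were vehicle for no effect and minimum signal wells for full effect; inactives centre near -20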
Mtb growth = M. tuberculosis H37Rv growth inhibitors, H37Rv strain (AID 1626) | M. tuberculosis H37Rv growth inhibition; higher % means a stronger effect | one-dose inhibition, % at 10 µM; IC50 in µM for titrated hits | 220,000 tested, 0.95% active;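 active means confirmed in a dose series; inconclusive means inhibition above 80% but not taken into the dose series; inactive means below 80% or under 30% at every dose of the series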;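 further: bacteria incubated seven days before Alamar blue readout; 0% = bacteria only wells and 100% = bacteria with antibiotic wells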
Arbovirus inh repeat = recorded beside Arbovirus inh, whose call it bears; inhibition, %; measured here: 10K subset replicate screen; many hits read low in the repeat;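 first of two repeat runs on a subset; 0% = infected and 100% = uninfected wells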
The depositor's hits bear a star; ? = inconclusive; nt = no result given.

SMILES | Mtb bLac sens | RecA intein inh | Arbovirus inh | YopH inh | Mtb growth | others
O=C(C1CCCN(S(=O)(=O)c2ccccc2)C1)N1CCCCCC1 (stereo not drawn) | 6 | -0.4 | -3 | -32 | -3% | Arbovirus inh repeat=-1
O=C(c1ccco1)N1CCN(C(=O)N2CCCC2)CC1 | -3 | -0.9 | 8 | nt | -11%
COc1ccc(N(CC(=O)Nc2ccc3c(c2)OCO3)S(=O)(=O)c2ccc(F)cc2)cc1 | 5 | 10 | -18 | -19 | -1%
CN1CCN(CC(=O)Nc2ccc(OCc3ccccc3)cc2)CC1 | -17 | -1.7 | -15 | -18 | nt
O=C(Nc1ccc(Cl)cc1)OCc1cn(-c2ccccc2)nn1 | -6 | -3.0 | -10 | nt | 6%
CC(=O)Nc1ccc(S(=O)(=O)NNC(=O)COc2ccc(C)cc2)cc1 | -1 | -3.1 | -11 | 4 | -12%
C/C(Cc1ccccc1)=N\NC(=O)CNC(=O)c1ccccc1 | 2 | 3.7 | 1 | -10 | -7%
O=C(O)c1nnn(-c2cc(C(F)(F)F)cc(C(F)(F)F)c2)c1-c1ccccc1 | 40 | -1.8 | nt | nt | -3%
Cc1nn(-c2ccccc2)c(C)c1NC(=O)COC(=O)Cc1ccccc1F | -9 | -5.7 | nt | nt | nt
Cc1nnc(SCCn2c(N3CCCC(C)C3)nc3c2c(=O)n(C)c(=O)n3C)s1 (stereo not drawn) | 0 | -1.1 | 3 | -44 | 2% | Arbovirus inh repeat=7
COc1cccc(NC(=O)N2CCCC(C(=O)NCc3ccc(F)cc3)C2)c1 (stereo not drawn) | 2 | -0.2 | -9 | -5 | -4%
COc1ccc(C(NCC(=O)NC(C)c2ccc(Cl)cc2)c2ccccc2)cc1 (stereo not drawn) | 0 | 12 | nt | nt | nt

A stretch of the results above, as a working copy:
SMILES | Mtb bLac sens | RecA intein inh | Arbovirus inh | YopH inh | Mtb growth | others
O=C(C1CCCN(S(=O)(=O)c2ccccc2)C1)N1CCCCCC1 (stereo not drawn) | 6 | -0.4 | -3 | -32 | -3% | Arbovirus inh repeat=-1
O=C(c1ccco1)N1CCN(C(=O)N2CCCC2)CC1 | -3 | -0.9 | 8 | nt | -11%
COc1ccc(N(CC(=O)Nc2ccc3c(c2)OCO3)S(=O)(=O)c2ccc(F)cc2)cc1 | 5 | 10 | -18 | -19 | -1%
CN1CCN(CC(=O)Nc2ccc(OCc3ccccc3)cc2)CC1 | -17 | -1.7 | -15 | -18 | nt

Next section
SMILES | Mtb bLac sens | RecA intein inh | Arbovirus inh | YopH inh | Mtb growth | others
O=C(COc1ncnc2scc(-c3ccc(F)cc3)c12)NCc1ccco1 | 59 | -0.2 | 1 | -11 | 10%
CC[N+](C)(CC)CCC/C(=N/O)C(O)(c1ccccc1)c1ccccc1 | -7 | 0.9 | nt | nt | -11%
COC(=O)/C(=C/Nc1ccc(O)cc1)[N+](=O)[O-] | 7 | -7.7 | 5 | 0 | -7%
CCN(CC)Cc1cc2ccccc2c2c1COC2 | -3 | nt | 0 | -33 | 0%
Cc1ccc(C)c(C(=O)Cn2ncc(Cl)c(Cl)c2=O)c1 | 98 | 19 | -49 | 10 | 59%
COc1ccccc1CCn1cnc2c3cc(C)ccc3n(C)c2c1=O | ? | 2.6 | -2 | -44 | -7%
C=CCn1c(N)c(C(=O)NCC2CCCO2)sc1=S (stereo not drawn) | 53 | nt | 4 | -29 | 2%
CC(CCc1ccccc1)NC(=O)COc1cc(F)ccc1[N+](=O)[O-] (stereo not drawn) | -9 | 1.7 | 10 | nt | 7%
c1ccc2oc(SCc3cn4ccsc4n3)nc2c1 | 9 | 0.8 | 14 | -19 | 4%
Cc1cccc(N(CC(=O)Nc2ccc(-c3nc4ccc(C)cc4s3)cc2)S(C)(=O)=O)c1 | -3 | -4.0 | -8 | -19 | -4%
CC(C)=C1C2CCC1C1C(=O)N(NC(=O)COc3ccc(Cl)c(C)c3)C(=O)C21 (stereo not drawn) | -8 | 3.4 | 8 | -27 | 8%
CCCN(CC(=O)Nc1ccccc1OC)C(=O)c1ccc(=O)[nH]c1 | -1 | 1.0 | nt | nt | nt
CCOc1ccc(C(=O)/C=C/Nc2ccc(S(=O)(=O)N=C(N)N)cc2)cc1 | 1 | -0.9 | -18 | -25 | -4%
O=c1/c(=C/c2ccccc2)sc2nnc(-c3cccs3)n12 | 44 | 0.9 | nt | nt | -4%
CCC(C)[C@H](NC(=O)OC(C)(C)C)C(=O)NCC1CCC(C(=O)N[C@@H](Cc2ccccc2)C(=O)O)CC1 (stereo partly drawn) | -5 | -1.1 | nt | nt | nt
COc1cccc(C(=O)Oc2cc(-c3ccccc3)no2)c1 | 6 | 1.7 | 3 | -5 | 2%
Cc1[nH]c(=O)[nH]c(=O)c1S(=O)(=O)N1CCCC(C(=O)NCCc2ccc(Cl)cc2)C1 (stereo not drawn) | -1 | 0.3 | 3 | -18 | -7%
COc1ccc(C(=O)NC2CCN(C(=S)Nc3cc(C)cc(C)c3)CC2)cc1 | -7 | -1.3 | -8 | -27 | 8%
Cc1ccc(S(=O)(=O)NC(CC(=O)NC2CCCC2)c2ccco2)cc1 (stereo not drawn) | -4 | 5.6 | 1 | -52 | -5%
CN(C)c1ccc(C=NCCC2(c3ccccc3)CCOC(C)(C)C2)cc1 (stereo not drawn) | -6 | 0.3 | nt | nt | -10%
CCOc1ccc(CCNC(=O)Cn2ncn3nc(-c4ccc(OC)cc4)cc3c2=O)cc1OCC | 3 | -1.1 | nt | nt | nt
CC1S/C(=N\N=C\c2cccc([N+](=O)[O-])c2)N(C(C)(C)C)C1=O (stereo not drawn) | 4 | 4.1 | nt | nt | 11%
O=C(Nc1ccccc1)N1CCN(C(=O)Nc2ccccc2)CC1 | 1 | -6.6 | 26 | nt | -1%
CCCc1cc2c(cc1NC(=O)c1ccc(C(C)(C)C)cc1)OCO2 | -8 | 5.4 | 9 | 4 | 14%
COc1ccc(OC)c(NC(=O)NNC(=O)COc2ccc(-c3ccccc3)cc2)c1 | -6 | 5.4 | nt | nt | nt
COc1ccc(C(=NNc2ccccc2C(=O)O)c2ccc(OC)cc2)cc1 | 4 | 4.1 | -5 | -17 | 11%
COc1ccc(-c2csc(NNC3=NCCCCC3)n2)cc1 | 12 | nt | -2 | nt | 2%
CC(C)Oc1ccc(C2CC(=O)N(c3cccc(C(=O)O)c3)C2=O)cc1 (stereo not drawn) | 4 | 0.6 | 2 | -7 | -10%
c1ccc2c(c1)CCCN2Cc1nnnn1CC1CCCO1 (stereo not drawn) | 13 | -14 | 9 | -35 | -12%
CCc1nnc(NC(=O)CSc2nnc(COc3ccc(C#N)cc3)n2-c2ccccc2)s1 | 0 | -1.8 | 5 | -42 | -10%
Cc1ccc(C)c(S(=O)(=O)N2CCN(C(=O)c3ccnn3C)CC2)c1 | 0 | -0.1 | nt | nt | nt
COc1ccc(S(=O)(=O)Nc2ccc(N3CCOCC3)nc2)cc1 | -14 | 1.9 | 3 | nt | 3%
Cc1ccc(-c2csc(NC(=O)CCNC(=O)c3ccco3)n2)cc1 | -4 | -1.6 | 6 | nt | 5%
Cc1nnc(SCc2cc(=O)[nH]c(N3CCN(Cc4ccccc4)CC3)n2)s1 | -12 | -0.4 | 10 | 5 | -2%
Cc1ccc(N2C(=O)CC(Sc3nc(C)cc(C)n3)C2=O)cc1 (stereo not drawn) | -6 | 0.5 | nt | nt | nt
CCC(c1nnnn1Cc1ccc(F)cc1)N(CCCO)Cc1cc2cc3c(cc2[nH]c1=O)OCO3 (stereo not drawn) | -9 | -1.9 | 0 | -32 | -5%

Some of these compounds in order of count of non-hydrogen atoms, descending.
SMILES | Mtb bLac sens | RecA intein inh | Arbovirus inh | YopH inh | Mtb growth | others
Cc1nnc(SCc2cc(=O)[nH]c(N3CCN(Cc4ccccc4)CC3)n2)s1 | -12 | -0.4 | 10 | 5 | -2%
Cc1ccc(-c2csc(NC(=O)CCNC(=O)c3ccco3)n2)cc1 | -4 | -1.6 | 6 | nt | 5%
COc1ccc(S(=O)(=O)Nc2ccc(N3CCOCC3)nc2)cc1 | -14 | 1.9 | 3 | nt | 3%

(continued)
SMILES | Mtb bLac sens | RecA intein inh | Arbovirus inh | YopH inh | Mtb growth | others
Cc1ccc(C(c2nnnn2C2CCCC2)N2CCN3CCCC3C2)cc1 (stereo not drawn) | 0 | 1.9 | -9 | -22 | -9%
COc1ccc(Cl)cc1Nc1nc(-c2sc(NC(=O)C(C)(C)C)nc2C)cs1 | 44 | 4.2 | 8 | -20 | 6%
Cc1cc(N/N=C/c2ccc(O)c(C)c2O)nc(-c2ccccc2O)n1 | 11 | 47* | -36 | -2 | 27%
O=[N+]([O-])c1ccc(-c2ccc(/C=N/Nc3nc(N4CCCC4)nc(N4CCCC4)n3)o2)cc1 | 1 | -6.0 | -14 | nt | 34%
O=c1[nH]cccc1-c1nc2ccccc2n1Cc1ccccc1F | -1 | -2.1 | nt | nt | nt
CC1CCC(C(C)C)C(OCC(O)CN2CCN(Cc3ccccc3)CC2)C1 (stereo not drawn) | 9 | 1.6 | -7 | -6 | 14%
CN(C)c1ccc(NC(=O)CC2NCCNC2=O)cc1 (stereo not drawn) | -2 | -1.0 | 3 | -24 | -9%
CCCOc1ccc(C(=O)CCNC(Cc2c[nH]c3ccccc23)C(=O)O)cc1 (stereo not drawn) | 9 | -2.5 | nt | nt | nt
CCN(CC)S(=O)(=O)c1cccc(C(=O)N/N=C(\C)c2cccs2)c1 | 3 | -9.3 | 1 | nt | 3%
CCn1ccnc1CN(C)Cc1nc(Cc2cccc(C(F)(F)F)c2)no1 | 0 | 3.0 | 1 | nt | -5%
Cc1n[nH]c(=O)n1-c1ccc(OC(F)(F)F)cc1 | -10 | -2.2 | 2 | nt | -2%
O=C(Cc1cccs1)N=Nc1c(O)[nH]c2ccccc12 | -4 | 1.5 | nt | nt | 14%
CC1CN(c2ccc([N+](=O)[O-])cc2C(=O)N2CCOCC2)CC(C)N1 (stereo not drawn) | -2 | 1.7 | 6 | -21 | -5%
Cc1cc(NC(=O)C(C)SCC(=O)Nc2ccc(SC(F)F)cc2)no1 (stereo not drawn) | -5 | 0.4 | nt | nt | nt
O=C(NCc1ccco1)C1(S(=O)(=O)c2ccccc2)CC=CC1 | -1 | -2.3 | nt | nt | nt
CN1CCN(CCCNC(=O)c2nnc(Cc3c(F)cccc3Cl)o2)CC1 | -6 | 0.0 | -1 | -14 | -5%
Cc1ccc2nc(-c3ccc(F)cc3)nc(SCC(=O)NCC3CCCO3)c2c1 (stereo not drawn) | 5 | 0.6 | nt | nt | nt
COC(=O)/C=C1/C(=O)N/C(=N\c2nc(C)cc(C)n2)N1c1ccc(OC)cc1 | 1 | 0.2 | -3 | 3 | 2%
Cc1ccc(OCC(=O)N(Cc2cccs2)C2CCS(=O)(=O)C2)cc1 (stereo not drawn) | -8 | 2.6 | nt | nt | -8%
CC(C)c1ccc[n+](-c2nc([O-])sc2C=O)c1 | -9 | 1.3 | nt | nt | 9%
O=C(Nc1ccc(S(=O)(=O)NCc2ccco2)cc1)C1CCCCC1 | 5 | 0.9 | -2 | nt | 4%
CCS(=O)(=O)N1CCN(C(=O)CC(C)C)CC1 | 0 | -0.8 | 3 | -17 | -10%
O=S(=O)(NCc1cccnc1)c1ccc2c(c1)OCCO2 | 16 | -0.8 | 14 | 4 | -2%
CN1CCN(NC(=O)Nc2ccc([N+](=O)[O-])cc2)CC1 | -16 | 0.0 | nt | nt | nt
O=C(NNS(=O)(=O)c1ccccc1[N+](=O)[O-])c1ccccc1[N+](=O)[O-] | -2 | -7.9 | 4 | -25 | 1%
NS(=O)(=O)c1cc(C(=O)OCC(=O)NNC(=O)c2ccccc2)ccc1Cl | -1 | -2.3 | nt | nt | nt
O=[N+]([O-])c1ccc(N(CC2CO2)S(=O)(=O)c2ccccc2)cc1 (stereo not drawn) | 0 | 8.7 | nt | nt | nt
Oc1ccc(-c2nc(-c3ccc(O)c(O)c3)cs2)cc1 | 0 | 2.6 | 12 | 11 | 4%
COc1ccc(CNc2ccc3c(c2)nc(C)n3C)cc1OC | 3 | -3.6 | nt | nt | nt
COCCCNCCOCCOc1ccc(C)cc1Br | 80 | -2.5 | -20 | -24 | 10%
O=C(Cc1cccs1)Nc1ccccc1 | -3 | -0.5 | nt | nt | nt
NC1=CC(=O)c2cccc3cccc1c23 | -3 | -10 | nt | -23 | -4%
CC(=O)c1ccc(C(=O)Nc2sc3c(c2C(N)=O)CCN(Cc2ccccc2)C3)cc1 | -8 | -20 | nt | nt | nt
Oc1ccc2ccccc2c1/C=N/Nc1ccccc1 | 5 | 2.1 | -16 | -9 | 6%
COc1cccc(NS(=O)(=O)c2cc(C)sc2C)c1 | -5 | 0.6 | 0 | 2 | -5%
Clc1ccccc1CSc1nnc(/C=C/c2ccccc2)o1 | 1 | 0.7 | 4 | -31 | nt

Compound activity (PubChem BioAssay)

Only part of the results is shown. The share of hits here may be higher or lower than overall.
